RecA intein inh: Mtb RecA intein splicing inhibitors, primary screen, biochemical, fluorescence, HTS; Protein RecA (Mycobacterium tuberculosis (strain ATCC 25618 / H37Rv)), P9WHJ3; cell-free RecA intein splicing; inhibition, %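 (about 9 µM by stock and volumes)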; 0.75% of 290,000 active; AID 2221, 2009; in the data active = inhibition above about 30%; inconclusive = no clear call, values can overlap the other calls;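 also: 0% = vehicle wells and 100% = reference inhibitor control wells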
Target sequence (P9WHJ3 whole entry, looked up): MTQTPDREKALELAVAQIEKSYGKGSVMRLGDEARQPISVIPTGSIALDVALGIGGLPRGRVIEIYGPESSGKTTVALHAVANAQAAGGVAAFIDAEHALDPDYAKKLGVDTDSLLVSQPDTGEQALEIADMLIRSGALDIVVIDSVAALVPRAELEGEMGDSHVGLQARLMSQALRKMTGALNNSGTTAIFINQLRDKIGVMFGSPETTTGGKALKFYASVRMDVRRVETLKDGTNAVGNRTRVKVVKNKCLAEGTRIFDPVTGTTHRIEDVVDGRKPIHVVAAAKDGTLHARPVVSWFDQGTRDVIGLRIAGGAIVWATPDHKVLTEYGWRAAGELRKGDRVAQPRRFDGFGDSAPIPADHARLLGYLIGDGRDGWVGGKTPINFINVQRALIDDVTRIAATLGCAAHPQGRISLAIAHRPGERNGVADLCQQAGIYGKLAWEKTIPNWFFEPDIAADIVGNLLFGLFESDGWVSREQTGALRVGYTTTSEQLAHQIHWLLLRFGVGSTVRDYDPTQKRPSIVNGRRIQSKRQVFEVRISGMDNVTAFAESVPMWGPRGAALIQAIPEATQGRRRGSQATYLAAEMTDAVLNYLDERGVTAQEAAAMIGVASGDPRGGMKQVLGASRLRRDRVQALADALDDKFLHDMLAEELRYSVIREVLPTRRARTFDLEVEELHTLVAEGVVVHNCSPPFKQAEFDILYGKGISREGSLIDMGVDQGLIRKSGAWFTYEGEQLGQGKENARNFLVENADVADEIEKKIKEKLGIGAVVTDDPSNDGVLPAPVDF
Mtb betalactam: beta-lactam sensitization of Mtb H37Rv, H37Rv | M. tuberculosis H37Rv growth with meropenem, percent inhibition; hits of this screen are not shown here | inhibition, % at 25 µM | 0.27% of 330,000 active;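 active = about 74% or more and at least 40 points above the plate without the antibiotic, then above 30% in a dose series; inconclusive = first-round hits that could not be retested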;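 also: growth measured after seven days incubation then overnight dye step; 0% = bacteria only wells and 100% = bacteria with antibiotic; twin plates without the antibiotic show which effects depend on it; some results filed as inactive read as strong as hits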
Mtb H37Rv: M. tuberculosis H37Rv growth inhibitors, H37Rv strain (AID 1626) | M. tuberculosis H37Rv growth inhibition; higher % means a stronger effect | inhibition, % at 10 µM; hits with a dose series show IC50 in µM | 0.95% of 220,000 active;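 active = confirmed in a dose series; inconclusive = inhibition above 80% but not taken into the dose series; inactive = below 80% or under 30% at every dose of the series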;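 also: bacteria incubated seven days before Alamar blue readout; 0% = bacteria only wells and 100% = bacteria with antibiotic wells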
Arbovirus inh: antivirals against arbovirus infection, primary screen, cell-based, full library, 10K replicate subset; arbovirus infection cell-based antiviral screen; inhibition, % at 10 µM; 0.37% of 200,000 active;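 active = inhibition from about 30%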;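 also: bluetongue infection of BSR cells; cell survival read as ATP light after 72 h; 0% = infected wells without compound and 100% = uninfected wells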
YopH PTP inh: YopH tyrosine phosphatase inhibitors, primary screen, biochemical, fluorescence Ex485/Em525 | YopH tyrosine phosphatase [Yersinia enterocolitica] | inhibition, %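 (about 10 µM by stock and volumes)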 | 0.16% of 140,000 active | AID 898, 2007;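 active = inhibition of 50% or more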;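 also: controls were vehicle for no effect and minimum signal wells for full effect; inactives centre near -20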
Arbovirus inh repeat: also measured in Arbovirus inh; calls as there; inhibition, %; measured here: 10K subset replicate screen; many hits read low in the repeat;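 first of two repeat runs on a subset; 0% = infected and 100% = uninfected wells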
Starred values were filed as active, the others as inactive; ? = inconclusive; . = not tested or not shown; & = joins results of further samples. Only part of the results is shown; the hit share may differ from the screen's.

SMILES	RecA intein inh	Mtb betalactam	Mtb H37Rv	Arbovirus inh	YopH PTP inh	others
C=CCN=c1scc(-c2ccco2)n1/N=C/c1ccc(O)c(O)c1O	-4.0	0	-3%	.	.
CCOC(=O)C1=C(O)/C(=C\c2ccc(CNC(=O)C(=O)Nc3ccc(C)c(C)c3)o2)N=C1C	.	.	.	-3	-3
Cc1ccc(-n2nc3c(c2NC(=O)C2CC2)CS(=O)(=O)C3)cc1	-5.2	1	.	.	.
O=C(CN1C(=O)C(=O)c2ccccc21)c1ccc(Cl)cc1	-1.9	-7	.	.	.
COC(=O)c1cccc(NC(=O)c2ccco2)c1	1.5	0	-1%	-1	34
Cc1cc(Cl)ccc1NC(=S)NCc1ccccc1Cl	-0.8	0	4%	9	-1
O=C(CN1CCCCCC1)N1c2ccccc2Sc2ccc(C(F)(F)F)cc21	4.3	16	2%	-9	-25
Cc1ccc(N(CCC(=O)O)S(=O)(=O)c2ccccc2)cc1	1.3	-9	-4%	15	-13
O=S(=O)(Nc1ccc(F)cc1)c1cccc2nsnc12	-0.9	-2	.	.	.
COc1ccc(S(=O)(=O)N2CCC(N3CCN(c4ccccc4OC)CC3)CC2)cc1	4.7	-6	0%	.	.
CC(Oc1ccc(Br)cc1Br)C(=O)NC1CCCC1 (stereo not drawn)	-0.3	1	-3%	-10	.
COCC1CCCCN1C(=O)CCCn1nnnc1CN1CCC(C)CC1 (stereo not drawn)	2.2	-4	.	.	.
O=C(Nc1nc(-c2ccccc2)cs1)C1CCCCN1S(=O)(=O)c1ccc(Cl)cc1 (stereo not drawn)	1.8	99	27%	-10	-19
O=C(CNC(=O)c1ccc2c(=O)n3c(nc2c1)CCC3)Nc1ccc(F)c(F)c1	1.1	-19	.	.	.
CCc1ccccc1Nc1cc(C(=O)NCc2ccccn2)c2ccccc2n1	4.5	3	11%	-2	.
COc1ccc(CC(=O)N2CC(=O)N(CCc3ccccc3)C(=O)C2)cc1	0.9	-15	2%	-1	-36
COc1ccc(NC(=O)c2ccc(Br)o2)cc1	-0.8	23	-12%	-3	-6
CSCC[C@H](N)C(=O)N1CCC(C(=O)N[C@@H](Cc2c[nH]c3ccccc23)C(=O)O)CC1	-0.5	-1	.	.	.
CCCc1cc(=O)oc2c(CN3CCOCC3)c(O)ccc12	-50	-8	2%	0	16
CCOC(=O)c1[nH]c(C)c(C(=O)Nc2cc(OC)ccc2OC)c1C	.	?	.	-16	-9
Cc1ccc(C(=O)NNC(=O)CSc2n[nH]c(-c3cccnc3)n2)cc1	0.6	-2	-6%	0	.
c1ccc(-c2nc(NCc3cccnc3)c3ccccc3n2)cc1	0.8	39	8%	4	-29
CC1=C/C(=N\NC(=O)c2ccccc2)CC1	3.7	3	-4%	-3	-27
COc1ccc2no[n+]([O-])c2c1	11	100	4%	.	.
Cc1ccc(C)c(S(=O)(=O)N2CCCC2CNC(=O)C(=O)NCc2cccs2)c1 (stereo not drawn)	-1.1	2	.	.	.
Cc1ccc(/C=C2\C(=O)NC(=S)N(c3cccc(F)c3)C2=O)o1	0.8	2	.	.	.
Cc1cc(NC(=O)c2ccco2)c(=O)n(Cc2cccc(C(F)(F)F)c2)c1	8.2	-6	.	.	.
COc1ccc(-n2c(Cc3cccn3C)nnc2SCC(=O)Nc2nc(C)cs2)cc1	0.6	1	.	5	-37
CC(=O)Nc1ccc(OCc2ccc(S(=O)(=O)Cc3ccccc3)cc2)cc1	-1.7	9	4%	-13	.
CC(O)CNc1nc2ccccc2n1CC(=O)N1CCN(Cc2ccccc2)CC1 (stereo not drawn)	1.4	0	-8%	15	.
Cc1csc2c(N(C)CCO)ncnc12	-0.9	3	-2%	.	.
O=[N+]([O-])CC(c1ccc(F)cc1)c1c[nH]c2ccccc12 (stereo not drawn)	11	-1	.	.	.
N#C/C(=C/c1cccc(O)c1)C(=O)NCc1ccc(Cl)cc1	10	-2	.	.	.
Fc1ccc(NC(=S)Nc2cc(-c3ccccc3)[nH]n2)cc1Cl	-1.8	31	?	3	.
CCOC(=O)N1CCC(NC(=O)C2CCCN2C(=O)OCc2ccccc2)CC1 (stereo not drawn)	3.9	-8	7%	6	-48
CCOC(=O)c1cc(-c2ccc(/C=C3/C(=O)NC(=O)C(C#N)=C3C)o2)ccc1Cl	11	5	-3%	4	-9
O=C(CSc1nc2ccccc2[nH]1)N1CCN(c2ccccc2)CC1	1.2	-20	-13%	5	10
CC1CCN(C(=S)c2cccc([N+](=O)[O-])c2)CC1	3.7	-2	-1%	1	.
Cc1ccc(-c2noc(N=O)c2NO)cc1	.	1	1%	.	.
COc1cccc2sc(NC(=O)c3ccc(Br)s3)nc12	2.5	54	17%	-15	-17
O=C(c1ccc(C(F)(F)F)cc1)C1CCCN(Cc2ccncc2)C1 (stereo not drawn)	2.0	1	-8%	-2	.
COc1ccccc1CNS(=O)(=O)c1c(C)nc2sccn2c1=O	-3.5	2	.	.	.
COc1cccc(C(=O)CSc2nnc(-c3ccco3)n2CC2CCCO2)c1 (stereo not drawn)	-4.9	-5	-8%	2	-51
COC(=O)CCC(=O)NC1CC(C)(C)Cc2c1cnn2-c1ccc(F)cc1 (stereo not drawn)	-2.8	2	.	.	.
N#CC1(NC(=O)COC(=O)c2cc(O)c3ccccc3c2O)CCCCC1	81*	0	.	.	.
Cc1c(C(=O)N(C)c2ccccc2Cl)cnn1-c1ccccc1	-1.9	-1	.	.	.
CN(C)c1ccc(C2Nc3ccccc3C(=O)N2CCN2CCNC2=O)cc1 (stereo not drawn)	-0.3	-8	1%	.	.
CC(C)C1=CC(=NS(=O)(=O)c2cccc([N+](=O)[O-])c2)C=C(C(C)C)C1=O	-4.4	-1	-2%	-7	-35

Four compounds from above, sorted by molecular weight, low to high.
SMILES	RecA intein inh	Mtb betalactam	Mtb H37Rv	Arbovirus inh	YopH PTP inh	others
O=C(c1ccc(C(F)(F)F)cc1)C1CCCN(Cc2ccncc2)C1 (stereo not drawn)	2.0	1	-8%	-2	.
Cc1ccc(C(=O)NNC(=O)CSc2n[nH]c(-c3cccnc3)n2)cc1	0.6	-2	-6%	0	.
CCOC(=O)N1CCC(NC(=O)C2CCCN2C(=O)OCc2ccccc2)CC1 (stereo not drawn)	3.9	-8	7%	6	-48
CCOC(=O)C1=C(O)/C(=C\c2ccc(CNC(=O)C(=O)Nc3ccc(C)c(C)c3)o2)N=C1C	.	.	.	-3	-3

(listing goes on)
SMILES	RecA intein inh	Mtb betalactam	Mtb H37Rv	Arbovirus inh	YopH PTP inh	others
CCCCNc1c(C(=O)OCC)c(=O)[nH]c2ccccc12	5.6	1	-5%	6	-35
CCCc1c(C(=O)N/N=C/c2cccnc2)nnn1-c1nonc1N	1.4	6	.	.	.
Cc1ccc(CNC(=O)COC(=O)[C@@H]2CC(O)CN2S(=O)(=O)c2ccc3c(c2)OCCO3)cc1 (stereo partly drawn)	0.8	-9	41%	3	-34
COc1ccc2nc(NC(=O)c3cccc(-c4cc5ccccc5oc4=O)c3)sc2c1	1.4	3	.	-2	-8
COCCCNC(=O)CNC(=O)c1nn(-c2ccc(OC)cc2)c(=O)c2ccccc12	0.2	-7	.	.	.
O=C(O)c1c2c(nc3ccc(Cl)cc13)CCC2	1.0	-4	-3%	5	.
Cc1ccc(-c2ccc(/C=N/n3cnnc3)o2)cc1Cl	2.5	96	?	5	-31
Clc1ccc(-c2cc(CN3CCCCC3)no2)cc1Cl	0.7	-8	.	.	.
COc1cc(C2C(C#N)=C(C)NC3=C2C(=O)c2ccccc23)cc(OC)c1OC (stereo not drawn)	.	0	-3%	-2	-41
CN1CCN(S(=O)(=O)c2cccc(C(=O)Oc3ccc(C(C)(C)C)cc3)c2)CC1	3.1	1	.	.	.
COc1ccc(OC)c(S(=O)(=O)N2CCN(C(=O)CCc3ccccc3)CC2)c1	0.4	-6	.	.	.
CCCCCCC#Cc1cncc(C(=O)NNC(=O)Nc2cc(Cl)cc(Cl)c2)c1	2.2	-2	2%	.	.
Cc1ccccc1NC(=O)c1cccc(N2C(=O)C3C4CC(C(Br)C4Br)C3C2=O)c1 (stereo not drawn)	-0.2	8	.	.	.
O=C(Nc1ccc([N+](=O)[O-])cc1)Nc1ccc(OC(F)F)c(Cl)c1	.	100	?	0	-22
Cc1cccc(OCC(=O)Nc2ccc3c(C)cc(=O)oc3c2)c1	0.2	-12	1%	-6	-33
CC(O)CNc1nc2c(c(=O)n(C)c(=O)n2C)n1Cc1cccc(Br)c1 (stereo not drawn)	3.2	1	7%	10	-23
CC1CCCCN1S(=O)(=O)c1ccc(C(=O)Nc2nnc(-c3ccncc3)o2)cc1 (stereo not drawn)	-1.6	88	7%	-5	.
O=C(NC(=S)NNS(=O)(=O)c1ccccc1)c1cccnc1	2.5	3	2%	4	.
CCOC(=O)N1CCC(Nc2c(-c3ccc(C)cc3)c(=O)c2=O)CC1	-1.5	-6	-15%	7	-23
Cc1ncsc1CCOC(=O)C12CC3CC(CC(C3)C1)C2	4.2	3	-12%	6	-41
O=C(NCc1ccco1)c1ccc(COCC(F)(F)F)cc1	0.2	0	1%	-5	-8
Cc1ccc(S(=O)(=O)N2CCCN(S(=O)(=O)c3ccc(C)cc3)CC2)cc1	-7.2	-6	-3%	-7	3
CCn1c(=O)cc(OCC(=O)Nc2ccccc2C#N)c2ccccc21	-1.1	-1	3%	-3	-26	Arbovirus inh repeat=-6
CCOc1ccc(CN2CCNC(=O)C2CC(=O)NCCc2ccccn2)cc1 (stereo not drawn)	.	-8	0%	0	.
O=C(O)c1ccccc1-c1ccccc1C(=O)Nc1ccc2c(c1)CCC2	2.4	-7	.	.	.
CCOC(=O)N1CCN(S(=O)(=O)c2c(C)[nH]c(=O)[nH]c2=O)CC1	-1.4	-1	.	1	-20
CN(C)c1ccc(P(=O)(Nc2ccccc2)N2CCOCC2)c(NC(=O)c2cccs2)c1 (stereo not drawn)	-3.7	4	-4%	-7	-6
Nc1nnnn1/N=C/c1ccc(N2CCCCC2)c([N+](=O)[O-])c1	2.3	1	7%	-4	-22
CCn1cnc2sc(C(=O)N3CCN(c4ccc(OC)cc4)CC3)c(C)c2c1=O	0.8	-9	7%	8	-52
CC(=O)/C=C(/C)NC(Cc1c[nH]c2ccccc12)C(=O)O (stereo not drawn)	-0.8&1.3	5&-13	-6%&-5%	-1&6	-36&5
COc1ccc(NC(=O)c2ccc(CNS(=O)(=O)c3cccc(OC)c3)cc2)cc1	4.7	8	7%	-10	-18
CS(=O)(=O)N(CC(=O)NCCSc1ccc(Cl)cc1)c1ccc2c(c1)OCO2	-1.4	2	-3%	2	31
CCOC(=O)c1c(-c2ccc(F)cc2)csc1NC(=O)CCN1C(=O)c2ccccc2C1=O	-0.2	-7	3%	14	-32
COc1ccc(OC)c(N2C(=O)CC(Cc3ccc(Cl)cc3)C2=O)c1 (stereo not drawn)	-2.1	-8	-4%	-1	-11
Cn1nc(C(=O)NCc2ccccn2)c2ccccc2c1=O	3.5	1	-4%	-1	-46
CC(Sc1nncs1)C(=O)Nc1ccc(Cl)cn1 (stereo not drawn)	-1.8	-1	-9%	-4	-29

Structures above containing a thiophene ring, fused or not, in the order listed:
SMILES	RecA intein inh	Mtb betalactam	Mtb H37Rv	Arbovirus inh	YopH PTP inh	others
Cc1ccc(C)c(S(=O)(=O)N2CCCC2CNC(=O)C(=O)NCc2cccs2)c1 (stereo not drawn)	-1.1	2	.	.	.
Cc1csc2c(N(C)CCO)ncnc12	-0.9	3	-2%	.	.
COc1cccc2sc(NC(=O)c3ccc(Br)s3)nc12	2.5	54	17%	-15	-17
CN(C)c1ccc(P(=O)(Nc2ccccc2)N2CCOCC2)c(NC(=O)c2cccs2)c1 (stereo not drawn)	-3.7	4	-4%	-7	-6
CCn1cnc2sc(C(=O)N3CCN(c4ccc(OC)cc4)CC3)c(C)c2c1=O	0.8	-9	7%	8	-52
CCOC(=O)c1c(-c2ccc(F)cc2)csc1NC(=O)CCN1C(=O)c2ccccc2C1=O	-0.2	-7	3%	14	-32

The results go on:
SMILES	RecA intein inh	Mtb betalactam	Mtb H37Rv	Arbovirus inh	YopH PTP inh	others
COc1cccc(NC(=O)C(=O)c2cn(CC(=O)N3CCOCC3)c3ccccc23)c1	-2.6	85	.	.	.
COc1ccccc1N(CN1CCCC1=O)C(=O)c1c(F)cccc1F	-0.6	15	-3%	5	-3
O=[N+]([O-])c1cccc(Cl)c1N1CCOCC1	-0.7	-1	1%	3	-14
O=C(N/N=C/c1ccc(N2CCOCC2)cc1)c1cccs1	1.3	-1	-9%	-1	.
CCCCC(CC)CNC(=O)c1ccc2c(c1)OCO2 (stereo not drawn)	7.0	-2	3%	-14	-47
CC(=O)N(C)c1ccc(NC(=O)c2ccc([N+](=O)[O-])cc2Cl)cc1	-10	-7	9%	-1	-20
Nc1nnnn1N=C1CCCCC1	0.5	1	-7%	-4	-35

Screening results (PubChem BioAssay)
